Bioassay records: PubChem, several laboratories
Calb FLC: C. albicans growth inhibition with fluconazole, primary screen, CaCi-2 strain, Alamar Blue fluorescence; C. albicans CaCi-2 (fluconazole-resistant clinical isolate) + fluconazole, 48 h; growth inhibition, % (test concentration not listed); 0.57% of 300,000 active; AID 1979, 2009;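 active means most replicates above 75%; inconclusive means exactly half above 75%; inactive means most below 75%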;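 further: all wells also contain fluconazole at 8 µg/ml as a sub-toxic cotreatment; 0% = median of DMSO wells and 100% = median of geldanamycin control wells; wells of about 8 µL received 7.5 nL stock; the first replicate is given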
rRNA inh HTS: reduced GFP signal of wild-type E. coli, primary screen, bacterial rRNA inhibitor project, GFP/RFP fluorescence, OD600, single point; E. coli WT GFP vs humanized-ribosome RFP mutants, 24 h; active compounds read low; DMSO median 0, no signal -100; GFP signal change (wild-type ribosome), % (no concentration beside the values); 1.6% of 350,000 active; AID 720706, 2013;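 active means significant combined selectivity score with lowered wild-type GFP, culture density cut under 30%, mutant RFP and density less affected; inactive means any of these conditions unmet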; further: one replicate is shown; some compounds called inactive have numbers as strong as hits
ALR H2O2 inh: inhibitors of human ALR sulfhydryl oxidase, primary screen, biochemical, H2O2 detection, HRP-luminol luminescence, single point; FAD-linked sulfhydryl oxidase ALR (Homo sapiens), P55789; purified ALR, DTT oxidation; inhibition, % (concentration not given with the values); 3.8% of 290,000 active;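 active means mean and each replicate at 75% or more; inconclusive means only one of the two met; inactive means neither met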;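 further: stock transfer was 7.5 nL into about 7.5 µL; 0% = neutral wells and 100% = wells with inactivated enzyme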
LANA-H2B inh: blockers of LANA interaction with H2A/H2B – biochemical, FP readout, HTS, primary screen | 0.6% of 320,000 active | inhibition, % (no concentration beside the values) | Protein LANA1 (Human herpesvirus 8 type P (isolate GK18)), Q9QR71 | AID 2629, 2010 | cell-free LANA-H2A/H2B peptide, fluorescence polarization; in the data active means inhibition mostly above about 10%, no sharp cut-off; inactive means mostly below about 6.7%;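 further: stock transfer was 7.5 nL into about 10 µL; 0% = median of vehicle wells and 100% = median of positive control wells; one replicate is shown; the record names a cut of 25% in any replicate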
Target sequence (Q9QR71 whole entry, looked up): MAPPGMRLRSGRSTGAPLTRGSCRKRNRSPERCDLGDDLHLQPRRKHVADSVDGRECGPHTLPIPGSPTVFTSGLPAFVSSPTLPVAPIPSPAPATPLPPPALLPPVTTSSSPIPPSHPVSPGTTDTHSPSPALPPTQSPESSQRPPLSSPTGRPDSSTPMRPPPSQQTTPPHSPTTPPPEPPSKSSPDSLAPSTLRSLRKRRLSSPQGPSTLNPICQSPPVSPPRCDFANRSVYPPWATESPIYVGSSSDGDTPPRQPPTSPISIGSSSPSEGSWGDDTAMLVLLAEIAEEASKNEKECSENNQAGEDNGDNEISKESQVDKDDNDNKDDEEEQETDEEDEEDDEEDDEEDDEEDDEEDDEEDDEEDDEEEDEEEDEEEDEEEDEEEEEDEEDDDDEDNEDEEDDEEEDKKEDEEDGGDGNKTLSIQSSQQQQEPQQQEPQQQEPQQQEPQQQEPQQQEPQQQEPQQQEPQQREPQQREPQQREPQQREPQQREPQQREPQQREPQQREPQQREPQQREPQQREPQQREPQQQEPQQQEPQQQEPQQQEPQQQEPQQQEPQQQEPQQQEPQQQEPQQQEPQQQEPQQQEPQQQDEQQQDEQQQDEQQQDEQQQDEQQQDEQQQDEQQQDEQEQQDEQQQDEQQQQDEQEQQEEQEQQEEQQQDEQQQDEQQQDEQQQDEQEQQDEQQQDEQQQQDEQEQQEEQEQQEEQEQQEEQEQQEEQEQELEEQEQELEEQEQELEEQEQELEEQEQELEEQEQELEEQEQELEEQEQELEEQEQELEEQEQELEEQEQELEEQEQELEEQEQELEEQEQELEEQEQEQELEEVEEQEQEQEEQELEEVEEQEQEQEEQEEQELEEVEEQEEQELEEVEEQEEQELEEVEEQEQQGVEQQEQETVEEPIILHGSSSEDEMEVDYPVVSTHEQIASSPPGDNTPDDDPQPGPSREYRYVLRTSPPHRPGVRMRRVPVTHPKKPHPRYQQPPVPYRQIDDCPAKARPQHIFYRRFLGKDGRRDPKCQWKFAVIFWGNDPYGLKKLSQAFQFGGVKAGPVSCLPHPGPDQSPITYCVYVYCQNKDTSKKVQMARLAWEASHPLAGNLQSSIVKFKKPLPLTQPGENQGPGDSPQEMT
Beta apoptosis: inhibitors of cytokine-induced beta cell apoptosis, primary screen, luminescence | 0.8% of 300,000 active | INS-1E cytokine-induced death, ATP luminescence, 48 h; percent of positive-control rescue, neutral wells zero | protection from apoptosis, % (test concentration not listed) | AID 435005, 2010;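 active means all replicates at 75% or more, or half of them and the mean; inconclusive means half reach 75% but not the mean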;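 further: 0% = cytokine-treated negative control wells and 100% = positive control rescue; higher means more ATP so stronger rescue from cytokine killing; wells of about 40 µL received 100 nL stock; the first replicate is given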
A1 inh: caspase 3/7 activation in MEF A1-2A-BIM cells, primary screen, A1 inhibitor project, cell-based, luminescence, HTS; caspase activation, % (concentration not given with the values); Caspase-Glo 3/7 luminescence, 3 h; percent of clofoctol response, vehicle zero; 0.066% of 330,000 active; AID 2462, 2010;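 active means over half of replicate activation scores above 10%, or exactly half above 10 with the replicate mean above 10; inconclusive means replicate mean below 10 yet half the replicates above 10; inactive means over half of replicates below 10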;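 further: wells of about 30 µL received 50 nL stock; many hits fall short of the cut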
Beta2AR agonist: beta2AR agonists driving receptor internalization, primary screen, cell-based, FAP fluorogen, flow cytometry; AID 504454, 2011; 0.43% of 340,000 active; response, % (test concentration not listed); Am2.2-beta2AR cells; reference of the scale not given here;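 active means response above a set limit, near 3 SD of response in nonfluorescent compounds, cut at about 42% in these data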;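 further: stock transfer was 100 nL into about 11 µL; a reference agonist was the positive control; negative values mostly stem from fluorescent compounds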
T cruzi inh: inhibitors of intracellular T. cruzi growth, primary screen, luminescence, NIH3T3 host cells. T. cruzi beta-gal in NIH3T3, 90 h. inhibition, % (no concentration beside the values). 1.4% of 300,000 active;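 active means mean inhibition across valid replicates above about 55%, limit read from the data; inconclusive means mean below that limit but half or more replicates reach it; inactive means mean below it, under half of replicates reach it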;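 further: signal also drops with host cell toxicity which is not excluded here; 0% = plate median of DMSO wells and 100% = zero luminescence signal; higher percent means less beta-gal luminescence so fewer parasites; stock transfer was 50 nL into about 50 µL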
rRNA inh HTS OD600: further read-out of rRNA inh HTS, marked with its call; OD600 change, %; measured here: OD600 growth;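 optical density of the mix in the first replicate; 0 = DMSO median and -100 = no signal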
rRNA inh HTS RFP: second read-out of rRNA inh HTS, no call of its own (marks repeat the call); RFP signal change, %; measured here: RFP humanized mutant strains;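 first replicate; 0 = DMSO median and -100 = no signal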
Numbers without * were called inactive; u = inconclusive; x = no result given; & = joins results of further samples. Not all compounds are listed, so the mix of outcomes need not match the whole.

SMILES,Calb FLC,rRNA inh HTS,rRNA inh HTS OD600,rRNA inh HTS RFP,ALR H2O2 inh,LANA-H2B inh,Beta apoptosis,A1 inh,Beta2AR agonist,T cruzi inh
O=C(Cc1n[nH]c(=O)[nH]c1=O)N/N=C/c1cccc(O)c1,3,x,x,x,26,-1.1,0,0.0,1,-15
O=C(N/N=C/c1cccnc1)c1cccc(NC(=O)c2ccccc2Cl)c1,-5,-2,5,-0.4,0,-1.0,-3,0.0,9,-2
CC(Oc1ccccc1F)C(=O)NNC(=O)c1cccc(S(=O)(=O)N2CCN(C)CC2)c1 (stereo unspecified),x,-8,-24,2.0,3,x,4,0.4,-2,x
COc1ccc(CCCC(=O)NCCc2ccccc2)cc1,-1,5,-3,-9.8,3,0.6,x,0.7,0,3
COc1ccc(C(=O)OCC(=O)c2ccc[nH]2)cc1,x,3,17,3.8,1,0.9,-6,-2.0,-4,x
Cc1ccc(CNS(=O)(=O)NCc2ccccc2)cc1,-15,x,x,x,-3,1.3,0,0.8,-1,-1
CC(C)(C)C1CCC(C(=O)Nc2ccccc2N2CCOCC2)CC1 (stereo unspecified),x,0,-5,0.8,1,1.3,0,-1.0,11,x
c1ccc2c(c1)C(=NCC1CCCO1)NC2=NCC1CCCO1 (stereo unspecified),-1,13,4,-2.0,0,-1.7,-8,0.2,-1,-26
CC(=O)c1ccc(OCC(=O)Nc2c(C)nn(-c3ccccc3)c2C)cc1,-1,10,11,-4.0,2,6.5,2,0.9,8,-11
COC(=O)C1=CN(CCCN2CCCC2=O)C=C(C(=O)OC)C1c1cccs1,-3,x,x,x,-4,1.0,-5,-0.2,-5,0
O=C(NCCC1=CCCCC1)C(=O)NCCc1ccc(Cl)cc1,-2,13,16,1.1,-4,4.0,-22,0.0,5,-18
O=C(c1ccc(C#Cc2ccccc2)o1)N1CCN(c2ccccn2)CC1,12,x,x,x,-3,1.9,x,0.2,0,25
O=C(OCCOc1ccccc1Cl)c1ccc(-n2cnnn2)cc1,27,x,x,x,-9,-1.9,-5,0.4,7,0
Cc1oc2ccccc2c1CC(=O)NCCCN(C)C,0,2,5,0.7,-6,1.3,1,-0.3,1,6
Cn1c(SCc2ccc([N+](=O)[O-])cc2)nnc1-c1ccncc1,1,0,3,-3.8,-5,-4.8,4,1.0,-4,-14
CC(C)NC(=O)N(C)C[C@H]1Oc2ccc(NC(=O)NC3CCCCC3)cc2C(=O)N([C@H](C)CO)C[C@@H]1C,x,-5&-1,10&12,-5.5&-0.8,7,6.2,-4,0.0,2,x
O=Cc1ccc(OCC(=O)NC(=O)NC2CCCCC2)cc1,-38,x,x,x,-11,-3.0,-19,0.7,-5,1
COC(=O)COc1ccc2c(=O)c(-c3ccccc3)coc2c1,13,0,-2,0.6,-6,-0.9,0,-5.2,21,1
COc1ccc(NC(=O)CSc2nnc(C3CC3)n2N)cc1,10,x,x,x,33,4.9,1,-0.3,-12,-15
NS(=O)(=O)c1cccc(NC(=O)CC23CC4CC(C2)CC(CC(=O)Nc2cccc(S(N)(=O)=O)c2)(C4)C3)c1,-2,-28,-40,-8.1,6,-1.4,-3,1.3,-13,4
Cc1onc(-c2c(Cl)cccc2Cl)c1C(=O)OCC(=O)c1ccccc1,7,-9,-15,-0.6,-3,-2.9,5,-0.1,17,-7
C/C(=N\Nc1cccc(C(=O)O)c1)c1cc2ccccc2o1,2,-17,-9,-4.1,99*,-1.0,-3,1.3,7,-20
Cc1ccc(C2(C)NC(=O)N(CC(=O)NC(=O)NCCC(C)C)C2=O)cc1 (stereo unspecified),8,x,x,x,-2,-0.3,-11,0.3,-2,-18
Cc1cc(C)cc(NC(=O)C2CCCN2C(=O)NC2CCCCC2)c1 (stereo unspecified),-7,18,8,4.0,-4,-0.9,3,1.5,-7,14
CC(CC(=O)Nc1ccccc1)NCCCN1CCCC1=O (stereo unspecified),12,11,6,0.4,8,-1.4,-2,-0.7,-2,-8
Cc1cc2[nH]c(=O)c(=O)[nH]c2cc1S(=O)(=O)N1CCN(c2ccccc2)CC1,0,-22,-32,-4.9,97*,0.0,-5,-0.1,-2,-16
CCOC(=O)CCC(=O)Nc1ccc([N+](=O)[O-])cc1C,1,11,13,-0.3,-1,-1.7,0,0.6,2,-8
O=C1CSC(=S)N1,-2,4,11,1.8,-1,2.9,4,0.4,-8,-2
COC(=O)c1sc(S(=O)(=O)N2CCN(CCO)CC2)c(C(=O)OC)c1C,-9,9,8,2.1,0,-1.6,-4,0.8,1,-23
O=C(CN1CCOCC1)Nc1nc2ccc([N+](=O)[O-])cc2s1,3,4,1,-4.4,x,-3.8,3,-0.5,2,-12
COc1ccccc1C1CC(c2ccc(Br)cc2)=NN1C(=O)c1cccnc1 (stereo unspecified),-17,x,x,x,x,2.3,-3,-0.2,-10,30
Cc1nnc(SCC(=O)NC(=O)NCc2ccco2)n1Cc1ccccc1,1,x,x,x,-5,2.1,-8,0.1,-8,x
Cc1ncoc1C(=O)N1CCCC(C(=O)c2ccc(Oc3ccccc3)cc2)C1 (stereo unspecified),-2,12,-2,1.4,-9,5.3,3,0.2,-34,14
Brc1ccc(C2Nc3cccc4cccc(c34)N2)s1,x,8,24,4.1,x,-1.5,-2,-0.3,14,x
Cc1ccnc(NC(=O)c2cccc(S(=O)(=O)N3CCCc4ccccc43)c2)c1,5,-13,-24,7.9,4,4.4,-37,-0.5,10,23
COC(=O)Nc1ccc(S(=O)(=O)N2CCN(c3ccc(F)cc3)CC2)cc1,6,x,x,x,31,-1.6,1,1.0,-1,2
Cc1ccc(C(=O)N=c2sccn2C)cc1C,0,4,2,-2.8,4,5.3,6,-6.2,-8,1
C[C@H](CO)N1C[C@H](C)[C@@H](CN(C)C)Oc2c(NS(=O)(=O)c3ccc(F)cc3)cccc2C1=O,x,2&16,12&12,-3.1&-6.4,3,3.8,-4,0.7,-3,x
O=C(N/N=C/c1ccccc1C(=O)O)c1cccc(S(=O)(=O)N2CCOCC2)c1,x,24,18,0.5,1,4.9,1,-0.1,-5,x
Cc1ccc2nc3n(c(=O)c2c1)CCC3,6,-3,6,3.4,1,3.0,-3,0.2,-5,-10
COc1ccc(Cl)cc1Nc1nc(C)cc(=O)[nH]1,-3,x,x,x,9,1.5,-2,-0.1,0,-3
COCCN(C(=O)COC(=O)/C=C/c1ccc(OC)c(OC)c1)c1c(N)n(Cc2ccccc2)c(=O)[nH]c1=O,10,5,13,0.7,-6,-1.6,3,-0.6,0,-9
N#Cc1cccc(NC(=O)CCNC(=O)c2ccccc2Cl)c1,-5,-3,-3,10,50,-0.6,-4,0.2,-4,-9
Cc1ccc(NC(=O)CSc2nc(O)c(Cc3ccccc3)c(=O)n2-c2ccccc2)cc1,5,x,x,x,99*,1.6,-3,-0.8,0,-24
Cc1cccc(-n2ncc3c(NCCCO)ncnc32)c1,-5,-19,-18,-4.6,x,0.6,-4,-1.3,6,-12
Cc1ccc(/C=C/C(=O)NCC2COc3ccccc3O2)o1 (stereo unspecified),-18,11,5,1.9,20,-11,-8,0.5,-4,-14
Cc1cccc(N(Cc2cc3ccccc3[nH]c2=O)S(=O)(=O)c2ccccc2)c1,3,23,14,-8.4,-9,-2.6,-5,-1.0,-18,19
O=C(NCC(c1cccs1)N1CCOCC1)c1ccccc1NS(=O)(=O)c1cccc([N+](=O)[O-])c1 (stereo unspecified),33,5,7,1.2,17,-2.6,10,-0.8,1,11
COCC1CCN(C(=O)c2cc(COc3ccc4c(c3)CCCC4)on2)C1 (stereo unspecified),-1,-24,-53,-0.3,-4,-6.5,-3,0.6,-6,3
Cn1c(CCc2nc3ccccc3[nH]2)n[nH]c1=S,11,6,8,8.5,22,2.0,-4,0.0,0,-7

The results go on.
SMILES,Calb FLC,rRNA inh HTS,rRNA inh HTS OD600,rRNA inh HTS RFP,ALR H2O2 inh,LANA-H2B inh,Beta apoptosis,A1 inh,Beta2AR agonist,T cruzi inh
Cc1ccc(-n2cnc3cc(NCc4cccs4)ccc32)cc1,40,x,x,x,21,1.5,-4,-0.6,5,17
Cc1ccc(C2CCN(C(=S)NC3CCCCC3)C2)cc1 (stereo unspecified),-13,-8,-7,-3.4,-2,3.6,0,0.4,25,-12
CCOc1ccc(C(C(=O)NCC2CCCO2)N(C(=O)c2snc(C(N)=O)c2N)c2ccccc2F)cc1 (stereo unspecified),3,9,11,-0.1,x,5.0,-3,0.7,-5,-17
Cc1ccccc1C(=O)N1N=C(c2ccc(NS(C)(=O)=O)cc2)CC1c1cccs1 (stereo unspecified),-8,-1,0,7.9,-7,0.5,0,-0.2,3,1
COc1ccc(C(=O)CSc2nnc(CNc3nc(-c4ccccc4)cs3)n2C)cc1,-12,x,x,x,10,0.8,-9,-0.4,-1,18
O=C(c1ccc(Cl)cc1)N1CCN(c2cc(=O)[nH]nc2-c2ccccc2)CC1,7,x,x,x,-7,-2.1,0,1.1,1,4
O=C(N/N=C/c1c[nH]c2ccccc12)c1[nH]c2ccc(Br)cc2c1-c1ccccc1,17,2,4,5.7,x,x,x,x,19,u
O=C(NC(=S)Nc1ccc(Cl)cn1)C12CC3CC(CC(C3)C1)C2,6,4,10,-2.5,-19,0.8,-7,0.3,-7,25
COC(=O)C(C)n1cnc2c(nnn2-c2ccc(F)cc2)c1=O (stereo unspecified),-5,4,7,-1.0,-2,-1.8,-2,0.6,9,-7
CCN(CC(=O)Nc1cccc(OC)c1)C(=O)c1cnc(Cl)c(Cl)c1,-3,1,3,-0.3,12,0.4,1,0.7,-6,1
O=C(NNC(=O)C1CCCC1)c1ccccc1F,-1,11,28,0.7,-1,2.2,-2,0.3,-1,u
COc1ccc(OC)c(-c2cc(C3CCN(C(=O)OC(C)(C)C)CC3)[nH]n2)c1,0,-1,-3,6.0,-26,4.3,-5,-0.3,6,16
N#CC1=C(N)N2C(=C(C#N)C13CCCC3)Nc1ccccc12,-29,4,0,-5.5,-10,-0.3,5,0.5,-9,-4
O=C(Nc1ccc(OC(F)F)cc1)c1ncc(Cl)c(Cl)c1Cl,4,17,6,-8.5,0,-3.8,4,-0.5,0,-21
